HNF4A DNA FP: change in binding of human HNF4 alpha to DNA. P41235. HNF4a-FITC DNA binding, fluorescence polarization, 1 h. activity change, % at 10 µM. 360,000 tested, 0.3% active. AID 1224865; in the data active = activity change above about 30%, passing the limit was not always enough;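 note: controls were the assay level and a saturating level of protein; the project sought stronger binding though the title names inhibitors; some compounds called inactive have numbers as strong as hits; positive values seem to mean higher polarization but the record does not say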
Beta2AR agonist: activates human beta-2 adrenergic receptor causing internalization | P07550 | Am2.2-beta2AR cells, FAP receptor internalization, flow cytometry; reference of the scale not given here | response, % (test concentration not listed) | 340,000 tested, 0.43% active | AID 504454;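 active = response above a set limit, near 3 SD of response in nonfluorescent compounds, cut at about 42% in these data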;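 note: stock transfer was 100 nL into about 11 µL; a reference agonist was the positive control; negative values mostly stem from fluorescent compounds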
LANA-H2A inh: blocks KSHV LANA binding to histone H2A/H2B. inhibition, % (concentration not given with the values). 320,000 tested, 0.6% active. Q9QR71. AID 2629. cell-free LANA-H2A/H2B peptide, fluorescence polarization; in the data active = inhibition mostly above about 10%, no sharp cut-off; inactive = mostly below about 6.7%;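 note: stock transfer was 7.5 nL into about 10 µL; 0% = median of vehicle wells and 100% = median of positive control wells; one replicate is shown; the record names a cut of 25% in any replicate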
Target sequence (Q9QR71 whole entry, looked up): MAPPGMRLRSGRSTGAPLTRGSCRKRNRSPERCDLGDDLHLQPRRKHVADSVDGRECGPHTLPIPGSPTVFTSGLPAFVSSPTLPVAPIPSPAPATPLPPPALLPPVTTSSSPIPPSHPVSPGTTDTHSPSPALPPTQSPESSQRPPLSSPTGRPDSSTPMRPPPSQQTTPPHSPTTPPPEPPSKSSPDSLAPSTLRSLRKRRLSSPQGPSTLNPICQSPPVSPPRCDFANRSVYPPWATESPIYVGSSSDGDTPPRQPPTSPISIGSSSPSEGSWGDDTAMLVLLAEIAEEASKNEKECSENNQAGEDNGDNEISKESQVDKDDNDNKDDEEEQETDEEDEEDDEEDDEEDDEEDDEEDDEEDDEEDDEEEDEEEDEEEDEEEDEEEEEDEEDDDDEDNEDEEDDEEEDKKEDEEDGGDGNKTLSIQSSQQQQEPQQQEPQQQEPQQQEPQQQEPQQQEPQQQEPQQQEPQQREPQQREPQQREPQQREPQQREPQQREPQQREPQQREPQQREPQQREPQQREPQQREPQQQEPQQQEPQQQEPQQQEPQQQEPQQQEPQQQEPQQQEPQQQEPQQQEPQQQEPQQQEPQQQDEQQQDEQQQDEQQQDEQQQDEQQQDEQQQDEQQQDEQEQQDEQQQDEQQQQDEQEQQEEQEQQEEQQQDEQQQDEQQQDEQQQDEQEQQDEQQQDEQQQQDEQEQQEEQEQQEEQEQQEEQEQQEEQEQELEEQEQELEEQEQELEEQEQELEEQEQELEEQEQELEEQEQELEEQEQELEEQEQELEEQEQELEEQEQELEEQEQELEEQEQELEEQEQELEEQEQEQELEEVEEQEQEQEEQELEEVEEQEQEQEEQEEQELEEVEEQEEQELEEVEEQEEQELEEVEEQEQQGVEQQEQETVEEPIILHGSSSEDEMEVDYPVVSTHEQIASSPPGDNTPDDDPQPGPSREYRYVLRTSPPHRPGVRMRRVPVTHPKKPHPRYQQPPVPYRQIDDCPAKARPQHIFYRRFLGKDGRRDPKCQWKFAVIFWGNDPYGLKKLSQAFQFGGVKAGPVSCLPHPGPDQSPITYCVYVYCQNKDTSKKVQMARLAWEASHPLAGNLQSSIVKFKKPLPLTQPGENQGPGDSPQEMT
RanGTP-Impb inh: disruptors of Ran-importin-beta complex formation – biochemical, FRET, CFP-Ran, YFP-importin-beta, homogeneous, primary screen; cell-free CFP-Ran/YFP-importin-beta FRET ratio; 300,000 tested, 1.1% active; inhibition, % (no concentration beside the values);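 active = most replicates above 15%; inconclusive = exactly half above 15%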;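 note: 0% = DMSO wells and 100% = Ran loaded with GDP instead of GTP; wells of about 40 µL received 100 nL stock; the first replicate is given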
Calb FLC: C. albicans growth modulation with fluconazole; C. albicans CaCi-2 (fluconazole-resistant clinical isolate) + fluconazole, Alamar Blue growth, 48 h; growth inhibition, % (concentration not given with the values); 300,000 tested, 0.57% active; AID 1979;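 active = most replicates above 75%; inconclusive = exactly half above 75%; inactive = most below 75%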;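 note: all wells also contain fluconazole at 8 µg/ml as a sub-toxic cotreatment; 0% = median of DMSO wells and 100% = median of geldanamycin control wells; wells of about 8 µL received 7.5 nL stock; the first replicate is given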
Vif TR-FRET: HIV-1 Vif–A3G interaction blockers – biochemical, TR-FRET, GST-Vif 1-94, biotin-A3G peptide, dose response retest, primary screen (AID 1117319) | TR-FRET GST-Vif / biotin-A3G peptide binding; higher % means a stronger effect; test concentration not given here; strong numbers were not always called active | inhibition, %; hits with a dose series show IC50 in µM | 260,000 tested, 0.57% active;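 active = above the screen mean plus three standard deviations and confirmed in dose response; inconclusive = results disagree or hit not tested in dose response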;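 note: Vif residues 1-94 fused to GST binding biotinylated APOBEC3G peptide 110-148; 0% = full assay without inhibitor and 100% = GST in place of GST-Vif; retest series ran down from 100 µM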
ALR inh: blocks human ALR sulfhydryl oxidase activity; P55789; purified ALR, DTT oxidation, H2O2 HRP-luminol luminescence; inhibition, % (concentration not given with the values); 290,000 tested, 3.8% active; AID 485317;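 active = mean and each replicate at 75% or more; inconclusive = only one of the two met; inactive = neither met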;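 note: stock transfer was 7.5 nL into about 7.5 µL; 0% = neutral wells and 100% = wells with inactivated enzyme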
The depositor's hits bear a star; ? = inconclusive; . = no result given; & = joins results of further samples. This is a subset (hit frequency here may not be typical).

SMILES | HNF4A DNA FP | Beta2AR agonist | LANA-H2A inh | RanGTP-Impb inh | Calb FLC | Vif TR-FRET | ALR inh
Cc1ccnc(-n2c(-c3ccco3)nc3ccccc3c2=O)c1 | 0.2 | 0.4 | 3.2 | -1.6 | 3.4 | 0.5% | 0.0
O=[N+]([O-])c1ccccc1CN1CC=C(c2ccc(F)cc2)CC1 | 1.7 | -2.1 | -4.2 | 0.7 | 1.2 | 9.9% | -1.5
O=C(CSC1c2ccccc2-c2ccccc21)N/N=C/c1ccccc1 | 2.0 | 6.8 | -4.7 | 2.9 | -9.1 | -2.7% | -4.7
Cc1nc2ccccc2c(=O)n1-c1ccc(Cl)cc1Cl | -0.9 | 0.7 | 4.7 | 3.9 | 2.0 | 6.2% | 1.4
COC(=O)C1=C(c2ccc(F)cc2OCc2ccccc2)C[C@@H]2CC[C@H]1N2C(=O)N1CCC(O)(c2ccc(Cl)cc2)CC1 | -1.6 | 2.5 | -0.8 | . | . | . | -0.2
CN(C)CCN(CC1CCCN(Cc2ccccc2F)C1)C(=O)Cc1c(F)cccc1F (configuration not stated) | -3.2 | -2.3 | 2.3 | -0.1 | -2.9 | . | -2.4
CCOC(=O)c1c(C)n(CCN2CCN(C)CC2)c2ccc(OC)cc12 | -4.4 | -4.4 | 1.8 | -0.7 | -10.0 | 5.0% | -19.5
Cc1ccc(C(=O)N[C@@H](C)CN2C3=NC[C@@H](Cc4ccccc4)N3C[C@H]2Cc2ccc(O)cc2)cc1Br | . | . | -0.3 | -3.3 | -20.8 | -6.3% | -6.2
COc1cc2c(c(OC)c1)C(=O)OC(C)CCCC(=O)CCCCC2 (configuration not stated) | 5.4 | 6.6 | -1.8 | 1.3 | 0.0 | . | .
CCOC(=O)c1c(/N=C/C2C(=O)NC(=O)NC2=O)sc2c1CCC2 | 17.2 | -7.6 | -6.8 | . | 9.1 | . | 16.0
CCN1CCN(c2ccc([N+](=O)[O-])cc2C(=O)OC)CC1 | 4.1 | -3.1 | 1.0 | 4.1 | 2.6 | 6.0% | 6.1
COC(=O)C1=C(c2ccc(S(C)(=O)=O)cc2)C[C@@H]2CC[C@H]1N2C(=O)N1CCC(C)CC1 | 7.1 | -6.0 | -1.2 | ? | 3.0 | . | 6.0
c1ccc(CCn2nnnc2CN2CCC(n3nnc4ccccc43)CC2)cc1 | 1.6 | -14.0 | 5.1 | ? | 0.2 | 7.4% | -27.7
CC(=O)C1C(=O)NC23CCCCC2C1c1ccccc1O3 (configuration not stated) | -0.1 | 1.5 | -16.9 | ? | -10.2 | -5.1% | -0.6
Fc1ccc(Cn2nnnc2C(c2ccc(Cl)cc2)N2CC=C(c3ccc(F)cc3)CC2)cc1 (configuration not stated) | 3.5 | -2.2 | -19.2 | 0.3 | 21.6 | . | 0.9
COc1ccc(Cn2c(O)c(C=NCCN3CCOCC3)c(=O)[nH]c2=O)cc1 | -1.5 | 0.1 | -1.0 | -0.6 | -10.6 | 4.8% | -4.5
Clc1ccc2sc(C3CCNCC3)nc2c1 | 3.8 | 7.7 | 6.0 | 0.3 | -4.9 | -3.9% | 41.4
CCCCn1c(O)c(C(CC)=Nc2ccc(OC)cc2OC)c(=O)[nH]c1=O | 0.9 | -3.4 | 5.4 | ? | 42.0 | 11.5% | -23.8
COc1ccc(-n2nc(C(=O)NCC(=O)N3CCC4(CC3)OCCO4)c3ccccc3c2=O)cc1Cl | 0.4 | -9.1 | 10.1 | -2.8 | -10.9 | -2.2% | -5.4
CC(=O)Nc1cccc([As](=O)(c2cccc(NC(C)=O)c2)c2cccc(NC(C)=O)c2)c1 | 1.5 | -14.3 | -3.2 | -0.1 | -2.2 | 0.8% | -2.2
C[N+]1(C)CCOC(O)(c2ccc(-c3ccc(C4(O)C[N+](C)(C)CCO4)cc3)cc2)C1 (configuration not stated) | -1.6 | -15.2 | -6.6 | 3.4 | . | -2.0% | .
CN(C(=O)COC(=O)c1cn(C)c2ccccc12)C1CCCCC1 | 1.3 | -2.7 | -0.2 | . | . | -4.1% | .
CN1CCN(c2ccc(S(C)(=O)=O)cc2[N+](=O)[O-])CC1 | -2.9 | -0.9 | 3.3 | 0.6 | -13.3 | . | -7.0
COc1ccc(OC)c(N2C(=O)NC(=O)/C(=C\c3ccc([N+](=O)[O-])s3)C2=O)c1 | -9.7 | 15.8 | -7.2 | 3.2 | 31.8 | 11.5% | .
COc1ccccc1N1CCN(CCc2ccccc2)CC1 | 0.8 | -0.5 | -7.6 | 0.3 | 2.0 | -2.6% | 15.7
C=CCn1c(O)c(C(CC)=NCc2ccc3c(c2)OCO3)c(=O)[nH]c1=O | -0.9 | 5.1 | 1.8 | 3.2 | -34.7 | 9.2% | -7.7
Cn1c(O)c(C=NC2CC3CCC2(C)C3(C)C)c(=O)[nH]c1=O (configuration not stated) | 4.0 | -5.4 | 2.9 | . | -15.4 | 29.3% | -4.5
COc1ccc(CC(C)NCCC(c2ccccc2)c2ccccc2)cc1 (configuration not stated) | -3.2 | 20.9 | 2.5 | -0.8 | 0.5 | -5.5% | -6.8
C[C@]12CCC3C(C1CCC2=O)[C@H](O)C[C@H]1C[C@@H](O)CC[C@]31C (some centres not stated) | 0.3 | -3.8 | 1.5 | . | . | -10.9% | -4.7
N#Cc1ccccc1Cn1cc(C(=O)c2cccs2)c2ccccc21 | -0.1 | -6.4 | -2.1 | 0.9 | 6.4 | -8.9% | -3.3
COc1cc(CC(C)N)c(OC)cc1I (configuration not stated) | -0.9 | 7.7 | -4.3 | 0.7 | -13.4 | . | -4.1
OC1/C(=C/c2ccccc2F)N2CCC1CC2 (configuration not stated) | -1.4 | 2.5 | 0.9 | 7.7 | 4.7 | . | -10.5
O=C(CN1CCN(c2ccccc2F)CC1)Nc1cccnc1Cl | 7.7 | 11.9 | 3.4 | 2.5 | ? | -5.4% | -0.2
CCC(=NCCC(c1ccccc1)c1ccccc1)c1c(O)n(C)c(=O)n(C)c1=O | -0.9 | 7.7 | -1.8 | 1.1 | -1.0 | . | -4.2
C[N+](C)(C)CC#CCOC(=O)Nc1cccc(Cl)c1 | 1.2 | -2.6 | -4.2 | -0.4 | . | . | 50.9
CCCCN1C(=O)NC(=O)/C(=C/c2cnc(SC)nc2)C1=O | -1.2 | -0.5 | -1.7 | -0.8 | -5.0 | -2.0% | 7.9
Cc1ccc(-c2nc3ccccc3c(=O)n2-c2nccs2)cc1 | -3.7 | -4.1 | -0.9 | 4.2 | -2.2 | -62.4% | 20.1
O=C1NC(=O)C(=Cc2ccc(Sc3ccccc3)o2)C(=O)N1 | -7.7 | -3.9 | -0.7 | -5.3 | 0.6 | 13.6% | 42.6
CCCCN1CCC(C#N)(Nc2ccccc2)CC1 | 1.4 | -5.0 | 5.8 | 2.6 | ? | 7.7% | -12.5
CC1CCC(N(C)C2CCN(C)CC2)CC1 (configuration not stated) | 1.7 | 6.2 | -2.0 | -1.8 | 2.5 | . | -5.4
COc1cc(C(=O)NC(=S)N2C[C@H]3C[C@H](C2)c2cccc(=O)n2C3)cc(OC)c1OC | 3.8 | 0.1 | -1.1 | -0.7 | -1.5 | . | 8.3
CC(C)(C)NC(=O)Cn1cc(C(=O)c2ccccc2F)c2ccccc21 | -1.9 | -2.9 | -3.8 | -3.5 | -7.5 | -7.8% | -1.3
COc1ccc(C(CC(=O)N2CCC3(CC2)OCCO3)NS(=O)(=O)c2ccc(OC)cc2)cc1 (configuration not stated) | 0.7 | -10.3 | 1.2 | 1.2 | -25.3 | -2.1%&0.8% | 1.9
Cc1ccc(C(=O)N[C@@H](C)CN2C3=NC[C@H](Cc4ccccc4)N3C[C@H]2Cc2ccc(O)cc2)cc1Br | . | . | 1.1 | 1.7 | -16.7 | . | .
Cc1nc2ccccc2c(=O)n1-c1ccc(Br)cc1[N+](=O)[O-] | -3.2 | 4.6 | 5.8 | 1.4 | 28.0 | 4.8% | .
COCCNC(=O)c1c(N)n(CCC(C)C)c2nc3ccccc3nc12 | 2.4 | -1.9 | -0.3 | 81.5* | -8.7 | 4.2% | 28.3
Cc1cc(Cl)ccc1OC(C)C(=O)O (configuration not stated) | 2.0 | 4.7 | 2.3 | -3.4 | . | -0.5% | -1.4
CCC1(CC)C(=O)NC(=Nc2cccc(C(F)(F)F)c2)NC1=O | 3.5 | 6.3 | -1.0 | 5.5 | 3.1 | 1.5% | 2.4
COc1cc(CN=C(C)c2c(O)n(C3CCCCC3)c(=O)[nH]c2=O)cc(OC)c1 | 2.0 | -8.0 | -1.6 | 1.8 | 0.1 | -13.5% | 22.6
Cc1cnc(-n2c(=S)[nH]c3ccccc3c2=O)s1 | 0.6 | -0.5 | 0.1 | . | . | . | 96.7*
Cc1c2ccncc2c(C)c2c1[nH]c1ccccc12 | -56.9 | -161.8 | -28.1&-75.1 | -47.1 | . | . | 13.8
O=C(CN1CC=C(c2ccccc2)CC1)NC(=O)NCc1ccccc1 | 4.8 | -0.7 | -0.2 | 0.2 | -8.8 | . | 1.1
COc1ccc(OC)c(/C=N/OC(=O)Nc2ccc(Cl)cc2)c1 | 0.4 | -3.4 | -4.6 | -1.1 | -29.0 | . | -25.5
Cc1ccc(C(=O)COC(=O)Cc2ccccc2)cc1 | 5.6 | -0.3 | -6.8 | 5.0 | -2.1 | 5.5% | -5.0
C=C1N2CCC(CC2)C1(O)c1ccc(C)cc1 (configuration not stated) | -0.1 | -1.6 | 3.9 | 0.6 | -19.0 | -2.9% | -13.6
CCN1C(=O)NC(=O)/C(=C\c2cn(CC(=O)N3CCCC3)c3ccccc23)C1=O | 3.0 | 6.2 | 20.9 | 6.6 | 14.6 | . | .
COC1=CC=C2[C@H]3Cc4ccc(OC)c5c4[C@@]2(CCN3C)[C@H]1O5 | 0.9 | -7.1 | -2.0 | 0.5 | 0.5 | -3.8% | -53.2
CCCNC(=O)N1[C@H]2CC[C@@H]1C(C(=O)OC)=C(c1cccc(C#N)c1)C2 | 2.8 | -0.6 | -2.1 | . | . | . | 3.2
COc1cccc(C2CCN(CC(=O)Nc3cc(Cl)ccc3OC)CC2O)c1 (configuration not stated) | -1.7 | 2.9 | -4.7 | -0.8 | -7.6 | . | -13.8
COc1ccc(-n2c(/C=C3/C(=O)Nc4ccccc43)nc3ccccc3c2=O)cc1 | 3.9 | -0.1 | -3.8 | -3.9 | 0.7 | -6.6% | 11.9
C=CCn1c(O)c(C=NC2CCN(Cc3ccccc3)CC2)c(=O)[nH]c1=O | 0.6 | 14.7 | 1.8 | 2.1 | -11.2 | . | -1.5
O=S(=O)(NC1CCCCCCC1)OCC(Cl)(Cl)Cl | -1.6 | -11.2 | 4.1 | 5.7 | -23.0 | . | -1.8

One compound at a time, as listed above. Screens in order: HNF4A DNA FP	Beta2AR agonist	LANA-H2A inh	RanGTP-Impb inh	Calb FLC	Vif TR-FRET	ALR inh
COc1ccc(C(CC(=O)N2CCC3(CC2)OCCO3)NS(=O)(=O)c2ccc(OC)cc2)cc1 (configuration not stated) as listed: 0.7	-10.3	1.2	1.2	-25.3	-2.1%&0.8%	1.9
Cc1cnc(-n2c(=S)[nH]c3ccccc3c2=O)s1 as listed: 0.6	-0.5	0.1	.	.	.	96.7*
COc1cc(C(=O)NC(=S)N2C[C@H]3C[C@H](C2)c2cccc(=O)n2C3)cc(OC)c1OC as listed: 3.8	0.1	-1.1	-0.7	-1.5	.	8.3
CCCNC(=O)N1[C@H]2CC[C@@H]1C(C(=O)OC)=C(c1cccc(C#N)c1)C2 as listed: 2.8	-0.6	-2.1	.	.	.	3.2

Compound activity from PubChem BioAssay.
